# GIV Gai3 FP – inhibitors of GIV peptide binding to Galpha-i3, primary screen, biochemical, fluorescence polarization, FITC-GIV GBA peptide, rat Galphai3; 90 min; active compounds read low; scaled: aluminum fluoride 0%, vehicle 100%; percent of control (FP), % (concentration not given with the values); 210,000 tested, 0.42% active;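 active = replicate mean at 85% of control or lower, very high polarization wells dropped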;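 note: wells of about 15 µL received 100 nL stock; the first replicate is given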
# Target sequence (P08753 whole entry, looked up): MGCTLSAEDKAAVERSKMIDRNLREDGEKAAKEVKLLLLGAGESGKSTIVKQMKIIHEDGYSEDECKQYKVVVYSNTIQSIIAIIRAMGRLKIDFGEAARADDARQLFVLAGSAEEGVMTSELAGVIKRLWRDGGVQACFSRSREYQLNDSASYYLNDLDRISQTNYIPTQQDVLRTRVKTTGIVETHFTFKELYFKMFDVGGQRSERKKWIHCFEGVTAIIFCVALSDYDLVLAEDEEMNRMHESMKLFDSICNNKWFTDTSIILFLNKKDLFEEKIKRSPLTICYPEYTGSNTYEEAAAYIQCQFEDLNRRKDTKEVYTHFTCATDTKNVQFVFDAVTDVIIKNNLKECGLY
# An asterisk follows results filed as active. Not all compounds are listed; rates above refer to the full screens.
SMILES,GIV Gai3 FP
Cn1c(N2CCN(C(=O)c3ccc(Cl)cc3)CC2)cc(=O)n(C)c1=O,104
CC1(c2ccccc2)COC2(OC1)C(=O)N(CN1CCCCC1)c1ccccc12 (centres undefined),114
CCOc1ccc(-n2nnc3c(N4CCN(C(=O)C5CCCCC5)CC4)ncnc32)cc1,103
O=S(=O)(c1ccccc1Cl)N1CCN(c2ncnc3c2nnn3-c2cccc(F)c2)CC1,99
COc1ccc(C(C)=O)cc1N1C(=O)C2C3C=CC(C3=C(c3ccccc3)c3ccccc3)C2C1=O (centres undefined),106
COC(=O)c1c(NC(=O)c2c(-c3ccccc3)noc2C)sc2c1CCC(C(C)(C)C)C2 (centres undefined),102
C=CCNC(=O)c1ccc(NC(=O)c2nsc3ccccc23)cc1,110
CC(C)Cn1c(=O)c(-c2ccc(C(=O)NCCCN3CCN(C)CC3)cc2)nc2ccccc21,106
CC(C)c1nc(CN2CCC(N3CCCCC3)CC2)cc(=O)[nH]1,106
CCOC(=O)C1=C(N)Oc2ccc3ccccc3c2C1c1ccc(Br)cc1 (centres undefined),100
Cc1nn(-c2ccc3nnc(C)n3n2)c2c1C(c1ccccc1OCc1ccccc1)CC(=O)N2 (centres undefined),95
CC(=O)Nc1cc(C(=O)N2CCN(c3ccccn3)CC2)ccc1Sc1ccc(C)cc1,102
O=c1n(Cc2ccccc2Cl)nc2c(S(=O)(=O)N3CCCC3)cccn12,113
C=CCNC(=O)c1snc(C(=O)NC(C)C)c1N,99
Cc1ccc(-c2nn3c(=O)cc(CN4CCN(C(=O)Nc5ccc(C)c(Cl)c5)CC4)nc3s2)cc1,103
O=C(Cc1ccccc1Cl)NC(c1ccccc1)c1nnc(-c2ccccc2)o1 (centres undefined),109
CCOC(=O)CNC(=O)CSc1nnc(NC(=O)Nc2ccc(F)cc2)s1,104
Cc1ncc(-c2ccc(S(=O)(=O)NCc3ccco3)s2)o1,109
CCOC(=O)C1=NN(c2ccc(Cl)cc2)C2C(=O)N(c3ccccc3[N+](=O)[O-])C(=O)C12 (centres undefined),103
CC1(C(=O)O)CC(=O)N=C2C=CC=CN21 (centres undefined),110
CCOC(=O)CNC(=O)Nc1c(-c2ccc(F)cc2)[nH]c2ccccc12,101
Cc1nccn1Cc1noc(CC2CCCCC2)n1,101
Nc1c(C(=O)c2ccc(Br)cc2)sc2nc(-c3ccccn3)ccc12,108
Cn1nnc2c(Nc3ccc4c(c3)OCO4)ncnc21,105
CCN(CC)c1ncnc2sc(C(=O)Nc3cccc(OC)c3)c(C)c12,105
# The listing continues.
SMILES,GIV Gai3 FP
Cc1ccc(C2C(C#N)=C(SCC(=O)Nc3ccc(C)c(C)c3)NC3=C2C(=O)CCC3)o1 (centres undefined),109
Cc1ccc(-c2n[nH]c3c2C(c2ccccc2F)N(c2ccccc2)C3=O)cc1 (centres undefined),118
CCCc1nnc2sc(NC(=O)C(CC)CC)nn12,98
O=C(NC1CC1)c1cc2cccc3c2n1CCS3,120
O=C(C1CCCN(c2ncc(-c3cccc(F)c3)cn2)C1)N1CCC(N2CCCCC2)CC1 (centres undefined),110
O=C(O)c1cc(C(=O)O)cc(N2C(=O)C3C4c5ccccc5C(c5ccccc54)C3C2=O)c1 (centres undefined),107
O=C(CSc1nnc2c3ccccc3nc(-c3ccccc3)n12)Nc1ccc2c(c1)OCCO2,98
O=C1C(=O)N(c2ccccn2)C(c2cccc([N+](=O)[O-])c2)/C1=C(\O)c1ccc(Br)cc1 (centres undefined),108
CCOC(=O)c1c(CBr)n(C)c2cc(Br)c(OC(C)=O)cc12,104
Cc1cc2c(cc1C(=O)NC(C)C)OCCCO2,101
CCCCSC1=C(C#N)C(c2sccc2C)C(C(C)=O)=C(C)N1 (centres undefined),109
COc1ccc(-c2cn3nc(SCC(=O)NCC4CCCO4)ccc3n2)cc1 (centres undefined),108
CCCS(=O)(=O)c1c(S(=O)(=O)CCC)c2ccc(C(C)=O)cn2c1C(=O)c1ccc(C)cc1,106
CCc1nnc(NC(=O)CSc2nnc(NC(=O)c3ccc(C(=O)c4ccccc4)cc3)s2)s1,105
Nc1nc(Cn2c(=O)oc3ccccc32)nc(N2CCOCC2)n1,110
CC12c3ccccc3C(C)(c3ccccc31)C1C(=O)N(Cc3ccccc3)C(=O)C12 (centres undefined),111
CC1CCC2C3(C)COC(C)(C)OC3CCC2(C)C12CCC(C)(CO)O2 (centres undefined),112
Cc1oc(C2CCN(C(=O)NCC3CCCO3)CC2)nc1C(=O)N1CCSCC1 (centres undefined),95
C#CCOc1cc(C2CC(=O)Nc3c2c(C)nn3-c2nncc(-c3ccc(F)cc3)n2)ccc1OC (centres undefined),94
CCOc1cccc(C2CC(=O)Nc3c2ccc2ccccc32)c1 (centres undefined),112
CNC(=O)N1CCCN(S(=O)(=O)C(C)C)CC1,97
O=C(Nc1ccc(F)cc1F)C1OC2OC3(CCCCC3)OC2C2OC3(CCCCC3)OC12 (centres undefined),106
CC(=O)NCCC1CCN(C(=O)c2ccc(F)cc2)CC1,100
Nc1c(C(=O)Nc2nccs2)sc2nc3c(c(-c4ccco4)c12)CCCC3,109
Cc1ccc(S(=O)(=O)NCCCN(CCN(CCCNS(=O)(=O)c2ccc(C)cc2)S(=O)(=O)c2ccc(C)cc2)S(=O)(=O)c2ccc(C)cc2)cc1,109

# 17 of these compounds in a different format.
SMILES	GIV Gai3 FP
CCOC(=O)CNC(=O)Nc1c(-c2ccc(F)cc2)[nH]c2ccccc12	101
Cc1nccn1Cc1noc(CC2CCCCC2)n1	101
Nc1c(C(=O)c2ccc(Br)cc2)sc2nc(-c3ccccn3)ccc12	108
Cn1nnc2c(Nc3ccc4c(c3)OCO4)ncnc21	105
CCN(CC)c1ncnc2sc(C(=O)Nc3cccc(OC)c3)c(C)c12	105
Cc1ccc(C2C(C#N)=C(SCC(=O)Nc3ccc(C)c(C)c3)NC3=C2C(=O)CCC3)o1 (centres undefined)	109
Cc1ccc(-c2n[nH]c3c2C(c2ccccc2F)N(c2ccccc2)C3=O)cc1 (centres undefined)	118
CCCc1nnc2sc(NC(=O)C(CC)CC)nn12	98
O=C(NC1CC1)c1cc2cccc3c2n1CCS3	120
O=C(C1CCCN(c2ncc(-c3cccc(F)c3)cn2)C1)N1CCC(N2CCCCC2)CC1 (centres undefined)	110
O=C(O)c1cc(C(=O)O)cc(N2C(=O)C3C4c5ccccc5C(c5ccccc54)C3C2=O)c1 (centres undefined)	107
O=C(CSc1nnc2c3ccccc3nc(-c3ccccc3)n12)Nc1ccc2c(c1)OCCO2	98
O=C1C(=O)N(c2ccccn2)C(c2cccc([N+](=O)[O-])c2)/C1=C(\O)c1ccc(Br)cc1 (centres undefined)	108
CCOC(=O)c1c(CBr)n(C)c2cc(Br)c(OC(C)=O)cc12	104
Cc1cc2c(cc1C(=O)NC(C)C)OCCCO2	101
CCCCSC1=C(C#N)C(c2sccc2C)C(C(C)=O)=C(C)N1 (centres undefined)	109
COc1ccc(-c2cn3nc(SCC(=O)NCC4CCCO4)ccc3n2)cc1 (centres undefined)	108

# (further entries)
SMILES,GIV Gai3 FP
O=C(Nc1ccc(SCc2nnc(-c3ccccc3)o2)cc1)Nc1cccc(Cl)c1,101
Nc1c(C(=O)Nc2cccc(Cl)c2)sc2nc3c(c(-c4ccco4)c12)CCCC3,106
CC1(C)C2([N+](=O)[O-])CN3CC1([N+](=O)[O-])CN(C2)C3c1ccc(O)cc1 (centres undefined),128
Cc1cc(N)nn1C(=O)CSc1nc2c(sc(=S)n2CC2CCCO2)c(=O)n1-c1ccc(F)cc1 (centres undefined),111
CCOC(=O)C1=C(C(=O)OCC)SC2(S1)C(C(=O)OCC)=C(C(=O)OCC)SC1=C2c2cc(OCC)ccc2N(C(=O)Cc2ccccc2)C1(C)C,113
O=C1CSC2(C(=O)Nc3ccccc32)N1c1cc(Cl)cc(Cl)c1 (centres undefined),108
Cc1c(C(=O)O)sc2ncnc(N3CCc4ccccc43)c12,240
COc1ccc(C2N(Cc3ccccc3)CCN2Cc2ccccc2)cc1O,111
COc1ccc(/C=C2\N=C(c3cc([N+](=O)[O-])ccc3Cl)OC2=O)cc1Br,112
NS(=O)(=O)c1ccc(NC(=O)c2ccc(=O)n(Cc3ccccc3F)c2)cc1,110
O=C(COC(=O)C(Cc1c[nH]c2ccccc12)NC(=O)c1ccco1)c1ccccc1 (centres undefined),103
O=C(c1cnccn1)N1CCC(Oc2cc(N3CCCC3)ncn2)C1 (centres undefined),104
CC1CCCN(S(=O)(=O)c2ccc(-c3nnc(C(C)C)o3)o2)C1 (centres undefined),105
CCCCn1c(CNC(=O)c2cccc(OC)c2)nnc1SC(C)C(=O)Nc1sc2c(c1C(=O)OCC)CCC2 (centres undefined),102
O=C(Nc1cccc(-c2nnc(-c3ccccc3)o2)c1)Nc1ccc(Br)cc1F,102
CC(C)(C)c1[nH]nc2c1C(c1cc(Cl)cc(Cl)c1OC(=O)N1CCOCC1)C(C#N)=C(N)O2 (centres undefined),113
CCOc1cccc(CN2C(=O)c3ccccc3CC2(C)C(=O)NCc2ccc(C)cc2)c1 (centres undefined),102
COc1ccccc1-n1cnc2cc(C(=O)NCc3ccccc3Cl)ccc21,101
COC(=O)CSc1nc2sc3c(c2c(=O)n1CCc1ccccc1)CCC3,106
Fc1cc(F)cc(CN=C2Nc3ccccc3NC23CCCCCC3)c1,98
N#Cc1cc(C#N)c(SCC(=O)c2ccc(-c3ccccc3)cc2)nc1N,108
O=C(Cn1cc(-c2ccccc2)c2ncnc(N3CCOCC3)c21)NCc1ccc(Cl)cc1,107
CC1CCN(Cn2nc(-c3cccc(F)c3)n(-c3ccccc3)c2=S)CC1,108
Cc1cc2nc3s/c(=C\c4cc(Cl)ccc4OCc4ccccc4)c(=O)n3c2cc1C,109
O=C(c1cccc(F)c1)N1CCN(c2cc(N3CCCCC3)c(F)cc2[N+](=O)[O-])CC1,110
# The listing continues:
SMILES,GIV Gai3 FP
CC12c3ccccc3C(c3ccccc31)C1C(=O)N(c3ccc(Cl)cc3[N+](=O)[O-])C(=O)C12 (centres undefined),106
Cc1cc(C2CCCN2C(=O)NCCC(C)C)on1 (centres undefined),99
O=C(CN1C(=O)CCCc2cc(S(=O)(=O)N3CCCC3)ccc21)NCc1ccccn1,106
COC(=O)C1=CN(c2cccc(C(F)(F)F)c2)C=C(C(=O)OC)C1c1cc(OC)c(OC)c(OC)c1,108
Cn1c(N2CCN(C(=O)CCC(=O)N3CCOCC3)CC2)cc(=O)n(C)c1=O,103
CCOc1ccc(CN2CCCC2c2c(C)noc2CC)cc1OC (centres undefined),104
Cc1cccc(CNC2=NCCNC23CCC(C)CC3)c1 (centres undefined),101
CCOc1cccc(CN2CCCC2c2c(C)noc2C)c1O (centres undefined),99
Cc1ccc(C2=N/C(=C\c3ccccc3OS(=O)(=O)c3ccccc3)C(=O)O2)cc1,114
COc1ccc(NC(=O)c2nnc(C3CCN(C(=O)Nc4ccccc4Cl)CC3)s2)cc1,100
NC(=O)CSc1nc2sc3c(c2c(=O)n1CCc1ccccc1)CCC3,100
O=C(CCc1c[nH]c2ccccc12)Nn1c(SCc2cc(=O)n3ccccc3n2)nc2ccccc2c1=O,121
CCOC(=O)c1ccc(N2N=C(C(F)(F)F)/C(=C/c3ccc(O)c(OC)c3)C2=O)cc1,97
Cc1cc(Sc2ccc(NC(=O)Nc3cccc(Cl)c3)cc2)n2ncnc2n1,105
CCCC[B-]1(O)c2ccccc2NC(C)=[N+]1c1ccccc1 (centres undefined),105
O=C(CSc1nc(Nc2ccc(F)cc2)c2ccccc2n1)NCc1ccco1,108
O=C(NC1CCN(Cc2ccccc2)CC1)C1CCN(c2ncnc3c2oc2ccccc23)CC1,109
COc1cc(/C=C2\N=C(c3ccccc3)N(c3ccc(Cl)cc3)C2=O)cc(OC)c1OC,102
COc1ccc(-c2cc(C(F)(F)F)n3ncc(C(=O)N4CCN(Cc5ccccc5)CC4)c3n2)cc1,108
COc1ccc2nc(-n3nc(C)c4c3NC(=O)CC4c3c(C)sc4ccccc34)sc2c1 (centres undefined),107
CCc1nnc(NC(=O)CSc2nc3c(=O)n(C)c(=O)n(C)c3n2C)s1,98
COc1ccc(C2C3=C(CC(c4cccc(F)c4)CC3=O)Nc3ccccc3N2C(=O)CCC(=O)O)cc1 (centres undefined),102
CCc1onc(C)c1C1CCCN1Cc1ccccn1 (centres undefined),110
COc1ccc(Br)cc1/C=C1N=C(/C=C\c2cccc([N+](=O)[O-])c2)OC/1=O,108
Cc1ccc(NC(=O)/C(=C/c2cccc([N+](=O)[O-])c2)NC(=O)c2ccccc2Br)c(Br)c1,112
# (cont.)
SMILES,GIV Gai3 FP
COc1ccc(Cl)cc1Nc1nc(-c2cc3cc(Br)ccc3oc2=O)cs1,112
O=C(CSc1nc2[nH]ncc2c(=O)n1-c1cccc(C(F)(F)F)c1)N1CCN(c2ccccc2)CC1,117
O=C(CSc1ncn[nH]1)c1ccc(F)cc1,98
CCCn1cnc2cc(-c3noc(CNC(=O)Cc4ccccc4)n3)ccc21,103
NNC(=O)/C(=C/c1cn(-c2ccccc2)nc1-c1ccccc1)NC(=O)c1ccc(Cl)cc1Cl,118
Cc1cccc(NC(=O)c2cc(S(=O)(=O)N3CCN(Cc4ccc5c(c4)OCO5)CC3)ccc2F)c1C,104
CN(C)c1ccc(N2C(=O)/C(=C/c3ccc(-c4cc(Cl)ccc4Cl)o3)C=C2c2ccccc2)cc1,102
CC(C)NC(=O)CCn1c(=O)c2ccccc2n2c(SCc3ccccc3F)nnc12,98
COc1ccc(-n2nnc3c(N4CCN(C(=O)C5CC(=O)N(c6ccccc6)C5)CC4)ncnc32)cc1 (centres undefined),101
CCC(=O)Nc1cc(Cl)ccc1OCc1cc(=O)n2oc(C)cc2n1,103
CCCCNC(=O)CSc1nc2ccccc2c(=O)n1CCc1ccccc1,110
COC(=O)C1Cc2c([nH]c3ccccc23)C(c2ccccc2)N1 (centres undefined),103
